# Screens (PubChem BioAssay)
# rRNA inh HTS: inhibitors of bacterial rRNA selective over humanized ribosomes | 350,000 tested, 1.6% active | GFP signal change (wild-type ribosome), % (no concentration beside the values) | E. coli WT GFP vs humanized-ribosome RFP mutants, fluorescence, 24 h; active compounds read low; DMSO median 0, no signal -100;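 active = significant combined selectivity score with lowered wild-type GFP, culture density cut under 30%, mutant RFP and density less affected; inactive = any of these conditions unmet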; note: one replicate is shown; some compounds called inactive have numbers as strong as hits
# Beta2AR agonist: human beta-2 adrenergic receptor agonism by FAP; P07550; Am2.2-beta2AR cells, FAP receptor internalization, flow cytometry; reference of the scale not given here; response, % (no concentration beside the values); 340,000 tested, 0.43% active; AID 504454;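 active = response above a set limit, near 3 SD of response in nonfluorescent compounds, cut at about 42% in these data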;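 note: stock transfer was 100 nL into about 11 µL; a reference agonist was the positive control; negative values mostly stem from fluorescent compounds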
# Target sequence (P07550 whole entry, looked up): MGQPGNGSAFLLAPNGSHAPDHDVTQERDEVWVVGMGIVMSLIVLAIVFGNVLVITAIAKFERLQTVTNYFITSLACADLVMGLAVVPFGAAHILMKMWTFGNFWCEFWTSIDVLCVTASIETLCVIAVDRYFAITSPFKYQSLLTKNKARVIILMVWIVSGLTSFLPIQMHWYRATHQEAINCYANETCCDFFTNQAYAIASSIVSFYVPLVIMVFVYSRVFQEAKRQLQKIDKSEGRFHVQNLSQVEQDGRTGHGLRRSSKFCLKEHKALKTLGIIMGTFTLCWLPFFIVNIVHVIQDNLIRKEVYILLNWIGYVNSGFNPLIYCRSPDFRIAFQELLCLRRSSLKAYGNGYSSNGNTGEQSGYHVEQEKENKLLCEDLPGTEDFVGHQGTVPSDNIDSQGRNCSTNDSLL
# ALR inh: blocks human ALR sulfhydryl oxidase activity; AID 485317; purified ALR, DTT oxidation, H2O2 HRP-luminol luminescence; P55789; 290,000 tested, 3.8% active; inhibition, % (no concentration beside the values);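 active = mean and each replicate at 75% or more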;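 note: stock transfer was 7.5 nL into about 7.5 µL; 0% = neutral wells and 100% = wells with inactivated enzyme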
# Target sequence (P55789 whole entry, looked up): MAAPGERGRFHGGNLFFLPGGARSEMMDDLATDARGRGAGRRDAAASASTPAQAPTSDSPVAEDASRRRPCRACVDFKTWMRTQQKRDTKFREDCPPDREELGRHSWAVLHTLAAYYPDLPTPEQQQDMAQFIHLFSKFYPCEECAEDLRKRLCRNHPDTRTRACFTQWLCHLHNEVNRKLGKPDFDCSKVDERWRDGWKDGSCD
# FGF22 binding: FGF22 (human) thermal shift binding; 340,000 tested, 1.5% active; calls only at 9.99 µM; Q9HCT0; AID 651658; recombinant FGF22 thermal shift, SYPRO orange fluorescence; percent of sucrose octasulfate shift, DMSO zero;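 active = melting point raised past a set limit in the mean and every replicate; three in four hits are not shown here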
# Target sequence (Q9HCT0 whole entry, looked up): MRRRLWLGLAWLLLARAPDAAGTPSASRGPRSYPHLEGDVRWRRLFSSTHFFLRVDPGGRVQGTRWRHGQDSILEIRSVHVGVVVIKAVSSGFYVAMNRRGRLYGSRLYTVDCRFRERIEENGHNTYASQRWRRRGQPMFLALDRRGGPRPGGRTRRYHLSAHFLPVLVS
# Ecoli growth: blocks Escherichia coli growth; OD600, 23 h; active compounds read low; OD600 absorbance (concentration not given with the values); 330,000 tested, 0.21% active; AID 1053175;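 active = OD600 absorbance below the run mean of sample wells minus 3.6 SD, in any replicate, cut at about 0.56 in these data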;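 note: stock transfer was 300 nL into about 60 µL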
# UCH37 inh: human UCH37 deubiquitinating enzyme inhibition | purified proteasome/UCH37, Ub-AMC cleavage fluorescence | 330,000 tested, 0.33% active | AID 588478 | inhibition, % (test concentration not listed) | Q9Y5K5;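 active = mean of two replicates above 20%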;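 note: 0% = compound-free wells with enzyme and 100% = wells lacking proteasome; stock transfer was 100 nL into about 20 µL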
#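 Reagent: Ub-AMC substrate; assay system: Proteasome-associated human UCH37 deubiquitinase; controls: no-proteasome and no-compound wells; read-out: % inhibition of Ub-AMC cleavage fluorescence; timing: 30 min preincubation with enzyme, 25 min cleavage at room temperature; signal: AMC fluorescence from Ub-AMC cleavage, excitation 355 nm, emission 460 nm; buffer or medium: Tris-HCl pH 7.4 plus ovalbumin, ATP-MgCl2, DTT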
# HNF4A DNA FP: change in binding of human HNF4 alpha to DNA; activity change, % at 10 µM; HNF4a-FITC DNA binding, fluorescence polarization, 1 h; 360,000 tested, 0.3% active; P41235; in the data active = activity change above about 30%, passing the limit was not always enough;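 note: controls were the assay level and a saturating level of protein; the project sought stronger binding though the title names inhibitors; some compounds called inactive have numbers as strong as hits; positive values seem to mean higher polarization but the record does not say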
# rRNA inh HTS OD600: further read-out of rRNA inh HTS, marked with its call; OD600 change, %; measured here: OD600 growth;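 optical density of the mix in the first replicate; 0 = DMSO median and -100 = no signal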
# rRNA inh HTS RFP: also measured in rRNA inh HTS; calls as there; RFP signal change, %; measured here: RFP humanized mutant strains;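 first replicate; 0 = DMSO median and -100 = no signal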
# * = called active by the depositor; i = inactive; . = no result given. This is a subset, so the mix of outcomes need not match the whole.
1	Nc1ccc2c(c1)Cc1cc(Cl)c(Cl)cc1-2
2	O=C(O)c1ccsc1Cc1cccs1
3	COC(=O)c1ccc(C(=O)OC)c(NC(=O)CSc2cccc[n+]2[O-])c1
4	CC(C)C(c1nnnn1Cc1ccccc1)N1CCC(C(N)=O)CC1 (stereo not drawn)
5	Cc1ccccc1NC(=S)NC(NC(=O)COc1ccccc1)C(Cl)(Cl)Cl (stereo not drawn)
6	COCCNC(=O)CN(Cc1ccc(F)cc1)C(=O)CCC(=O)Nc1nccs1
7	O=S(=O)(c1ccccc1)c1nc(NC2CC2)sc1Cl
8	Cc1cccc(-n2cc(CNCCN3CCOC3=O)c(-c3cccc(F)c3)n2)c1
9	CC1CCCN(C(=O)c2cccc(S(=O)(=O)N3CCCc4ccccc43)c2)C1 (stereo not drawn)
10	OC(CCc1cccc(Cl)c1)c1cccs1 (stereo not drawn)
screen / no.	1	2	3	4	5	6	7	8	9	10
ALR inh	.	.	-6.0	-14.8	-0.4	-9.2	14.0	-21.6	-0.3	.
UCH37 inh	-1.1	.	-10.7	2.8	1.3	3.4	3.2	-1.9	0.4	6.1
HNF4A DNA FP	5.6	-0.4	-1.3	2.2	1.6	-1.9	-1.8	3.5	-3.4	0.7
rRNA inh HTS	-6.2	3.9	.	.	.	-26.5	-14.7	-6.5	-14.8	0.5
rRNA inh HTS OD600	1.6	7.3	.	.	.	-39.1	1.3	-8.5	-18.2	-5.5
FGF22 binding	i	i	.	.	.	i	i	.	i	i
Beta2AR agonist	4.9	.	3.7	-6.5	-10.9	-1.3	12.9	6.1	-3.8	-2.0
rRNA inh HTS RFP	-1.3	-0.9	.	.	.	-8.9	3.5	1.5	2.2	-2.2
Ecoli growth	0.689	.	0.661	0.72	0.696	0.708	0.715	0.727	0.656	0.646

11	CO/N=C/NC(=O)NOCc1c(Cl)cccc1Cl
12	Cc1cc(=O)n(CC(C)O)c(O)c1C#N (stereo not drawn)
13	O=C1c2ccccc2C(=O)N1CCc1nc2ccccc2c(=O)n1-c1ccccn1
14	COc1cc(NC(=O)c2cccc(C)c2)ccc1NC(=O)c1cc2ccccc2o1
15	Cc1ccccc1Nc1ccc2nonc2c1[N+](=O)[O-]
16	CCOc1ccc(OCc2ccc(C(=O)N3CCc4ccccc4C3)o2)cc1
17	Cc1nnsc1C(=O)NNC(=O)c1ccc(C(F)(F)F)cc1
18	Cc1ccc(C(=O)N2CC(=O)Nc3ccc(F)cc3C2c2ccc(F)cc2)cc1[N+](=O)[O-] (stereo not drawn)
19	COC(=O)CNC(=O)C(CCSC)NC(C)=O (stereo not drawn)
20	Cc1ccc(NS(=O)(=O)c2c(C)nc3sccn3c2=O)c(C)c1
screen / no.	11	12	13	14	15	16	17	18	19	20
ALR inh	-2.9	-3.8	3.2	-7.5	-18.7	1.3	-10.4	-1.3	-4.5	-1.1
UCH37 inh	3.8	-0.6	-2.2	.	2.4	2.4	6.2	1.5	0.3	2.5
HNF4A DNA FP	0.6	0.6	-2.9	0.2	2.7	0.0	1.0	-2.0	-4.7	0.6
rRNA inh HTS	.	.	.	10.5	8.4	-28.2*	-9.9	.	5.3	0.9
rRNA inh HTS OD600	.	.	.	19.4	12.3	-16.3*	-5.2	.	3.8	-2.3
FGF22 binding	.	.	.	i	i	i	i	.	.	i
Beta2AR agonist	5.9	-0.7	-3.5	-6.3	-5.5	-0.3	0.2	-19.9	-1.8	-14.4
rRNA inh HTS RFP	.	.	.	-0.7	0.5	7.6*	-0.6	.	-6.2	-1.9
Ecoli growth	0.726	0.685	0.726	.	0.682	0.667	0.641	0.714	0.677	0.781

21	CN(CCOc1ccc(Cl)cc1)CC(=O)Nc1ccc(OC(F)(F)F)cc1
22	CCCc1cc2c(OC(=O)CC)c(-c3ccc(C(=O)OCC)o3)c(=O)oc2cc1OC
23	O=C(Nc1ccccc1Cc1ccccc1)C1CC(=O)N(c2ccc3c(c2)OCCO3)C1 (stereo not drawn)
24	O=C(Cc1csc(-c2cccc(Cl)c2)n1)Nc1cccc(S(=O)(=O)NC2=NCCC2)c1
25	COc1cccc(C2SCC(=O)N2c2ccc(Cl)cc2)c1OC (stereo not drawn)
26	C=CC(=O)Nc1cccc(Oc2ncnc3[nH]cc(-c4cnc5ccccc5c4)c23)c1
27	O=C(NCCc1ccccc1)Nc1ccc2c(c1)OCO2
28	O=C(O)CC(Cc1ccc(Cl)cc1)C(=O)NCc1ccccc1 (stereo not drawn)
29	Cn1cnnc1SCC(=O)N1CCC(Cc2ccccc2)CC1
30	CC(=O)N1SC(N)=NC1c1ccccc1 (stereo not drawn)
screen / no.	21	22	23	24	25	26	27	28	29	30
ALR inh	1.0	.	-17.4	22.4	-7.6	1.6	3.7	-3.1	-17.9	.
UCH37 inh	5.1	i	2.4	4.0	5.1	0.9	3.4	5.1	-6.0	2.8
HNF4A DNA FP	-3.0	-1.6	0.4	2.8	3.6	1.0	-1.9	-0.3	3.1	0.3
rRNA inh HTS	-67.0	.	.	-24.6	-25.8	-0.2	5.0	-3.4	.	.
rRNA inh HTS OD600	-83.4	.	.	-34.6	-39.3	10.0	-3.1	-0.8	.	.
FGF22 binding	i	.	.	i	i	i	i	i	.	.
Beta2AR agonist	6.5	1.3	-11.1	6.2	0.3	12.3	-3.9	0.9	0.3	-3.3
rRNA inh HTS RFP	-18.8	.	.	-1.2	-10.0	-9.3	-0.8	-1.8	.	.
Ecoli growth	0.71	0.715	0.729	0.699	0.705	0.682	0.674	0.669	0.725	0.717

31	Cc1cc(C(=O)N/N=C/c2ccc(O)c([N+](=O)[O-])c2)c(C)n1-c1ccc(F)cc1
32	CCCOc1ccc(C(=O)Nc2ccc(N(C)C)cc2)cc1
33	COc1ccc(CCNC(=O)c2ccc3c(SCC(=O)O)c4c(nc3c2)CCCC4)cc1OC
34	CCC(CC)n1[nH]c(=O)cc1N
35	Cc1ccc(-c2nc(CCNC(=O)c3ccco3)cs2)cc1
36	C/C(=C\c1cccs1)C(=O)c1c(C)cc(C)[nH]c1=O
37	O=C(NCC(c1ccco1)N1CCCC1)c1ccc(S(=O)(=O)Nc2ccccc2F)cc1 (stereo not drawn)
38	Cc1ccc(C(=O)OCC(=O)NCc2ccc3c(c2)OCO3)s1
39	Cc1nc(CSc2nnc(C)s2)cs1
40	COc1ccc(-c2cc(C(F)(F)F)nc(S(=O)(=O)CCCC(=O)Nc3cccc(O)c3)n2)cc1OC
screen / no.	31	32	33	34	35	36	37	38	39	40
ALR inh	-2.5	-10.2	-9.4	11.9	.	-5.2	.	-11.9	-2.3	.
UCH37 inh	.	-14.6	2.3	1.5	.	16.1	0.1	2.9	.	-153.1
HNF4A DNA FP	-6.2	1.9	-3.1	0.8	-2.4	-1.6	4.6	-2.0	-1.3	-1.7
rRNA inh HTS	.	.	-2.3	.	-6.4	5.2	7.6	.	5.7	-3.0
rRNA inh HTS OD600	.	.	2.0	.	-25.9	-3.2	6.2	.	15.2	-8.6
FGF22 binding	.	.	i	.	i	.	.	.	i	i
Beta2AR agonist	-1.3	-14.9	10.7	0.4	-4.2	-7.0	-1.4	2.8	-2.1	.
rRNA inh HTS RFP	.	.	-2.3	.	0.8	-9.8	3.3	.	1.4	1.6
Ecoli growth	.	0.694	0.718	0.731	.	0.712	0.64	0.635	.	0.647

41	CC(C)C(=O)NC(=S)Nc1ccc(S(=O)(=O)N2CCN(C)CC2)cc1
42	Cc1nnc(SCC(=O)Nc2ccc(S(=O)(=O)N3CCCCC3)cc2)s1
43	CC(C)CS(=O)(=O)C1=NSC2=NC(=O)/C(=C\c3ccc(OC(=O)c4ccco4)cc3)C(=N)N21
44	COC(=O)c1cc(OC)c(OC)cc1NC(=O)C1CCC(=O)N1S(=O)(=O)c1ccc(C)cc1 (stereo not drawn)
45	COc1ccc(Cl)cc1NC(=O)CN1CCCC1
46	Cc1ccc(C(=O)/C=C/c2ccccc2)o1
47	CCOC(=O)c1ccc(N=C2S/C(=C\c3cc(C)n(-c4cccnc4)c3C)C(=O)N2C)cc1
48	O=C(CSc1ccsc1[N+](=O)[O-])NCc1ccccc1
49	ClCC1NCC(c2ccccc2Cl)c2c1[nH]c1ccccc21 (stereo not drawn)
50	CN(C(=S)Nc1ccc(SC(F)F)cc1)C(c1ccccc1)c1ccccc1
screen / no.	41	42	43	44	45	46	47	48	49	50
ALR inh	-0.9	-4.6	20.5	1.3	-1.2	13.1	-15.1	.	97.9*	-2.9
UCH37 inh	2.1	1.6	15.9	-0.8	4.4	8.1	-7.5	3.3	-0.7	2.5
HNF4A DNA FP	-0.9	1.2	0.6	0.2	-1.5	0.5	3.2	-0.2	-13.6	1.7
rRNA inh HTS	.	.	2.9	.	4.0	.	.	-5.2	-11.4	-23.7
rRNA inh HTS OD600	.	.	2.9	.	10.7	.	.	-2.9	-4.4	-29.4
FGF22 binding	.	.	.	.	.	.	.	i	i	i
Beta2AR agonist	3.6	0.5	0.9	5.3	4.1	7.7	20.2	-2.5	-1.1	3.5
rRNA inh HTS RFP	.	.	5.3	.	-4.5	.	.	13.6	3.8	11.3
Ecoli growth	0.652	0.743	0.706	0.697	0.691	0.674	0.774	0.654	0.611	0.678

# In another format: results already given.
(48) O=C(CSc1ccsc1[N+](=O)[O-])NCc1ccccc1
  ALR inh = .; UCH37 inh = 3.3; HNF4A DNA FP = -0.2; rRNA inh HTS = -5.2; rRNA inh HTS OD600 = -2.9; FGF22 binding = i; Beta2AR agonist = -2.5; rRNA inh HTS RFP = 13.6; Ecoli growth = 0.654
(49) ClCC1NCC(c2ccccc2Cl)c2c1[nH]c1ccccc21 (stereo not drawn)
  ALR inh = 97.9*; UCH37 inh = -0.7; HNF4A DNA FP = -13.6; rRNA inh HTS = -11.4; rRNA inh HTS OD600 = -4.4; FGF22 binding = i; Beta2AR agonist = -1.1; rRNA inh HTS RFP = 3.8; Ecoli growth = 0.611
(50) CN(C(=S)Nc1ccc(SC(F)F)cc1)C(c1ccccc1)c1ccccc1
  ALR inh = -2.9; UCH37 inh = 2.5; HNF4A DNA FP = 1.7; rRNA inh HTS = -23.7; rRNA inh HTS OD600 = -29.4; FGF22 binding = i; Beta2AR agonist = 3.5; rRNA inh HTS RFP = 11.3; Ecoli growth = 0.678

# Continued:
51	COc1ccc(C2Nc3ccccc3C(=O)N2Cc2ccccc2)cc1COc1ccccn1 (stereo not drawn)
52	Cc1cc(C)n(Cc2cc(C(=O)O)c3ccccc3n2)n1
53	S=c1[nH]cnc2scc(-c3ccccc3)c12
54	COc1ccccc1OCC(=O)N1CCCC(Nc2ccc(F)c(F)c2)C1 (stereo not drawn)
55	O=C(CN1C(=O)CSc2ccc(S(=O)(=O)N3CCOCC3)cc21)NCc1ccc(Cl)cc1
56	C=C1CCN([C@@H](CC(C)C)C(=O)NCCCc2ccccc2)S(=O)(=O)c2ccccc21
57	CCOc1ccc(S(=O)(=O)Nc2cccc(C(=O)NCC(C)(C)N3CCOCC3)c2)cc1
screen / no.	51	52	53	54	55	56	57
ALR inh	-2.1	-3.4	0.0	40.7	-7.3	15.0	-12.9
UCH37 inh	-224.9	6.7	7.7	-1.8	0.2	-0.1	0.0
HNF4A DNA FP	-4.3	1.1	4.5	-2.5	4.1	-0.5	-2.8
rRNA inh HTS	.	13.9	-29.2*	-25.4	-8.1	-7.4	1.5
rRNA inh HTS OD600	.	15.3	-20.8*	-21.1	-21.3	-16.9	0.7
FGF22 binding	.	i	i	i	i	i	i
Beta2AR agonist	-2.1	1.6	5.3	-4.2	6.7	8.1	-8.5
rRNA inh HTS RFP	.	1.5	-9.1*	-0.7	-1.4	-1.4	-1.6
Ecoli growth	0.74	0.67	0.63	0.715	0.67	.	0.655
